Screens: PubChem, National Center for Advancing Translational Sciences (NCATS)
VDR inhibitor – blocks the human vitamin D receptor; VDR-SRC2-3 peptide fluorescence polarization, 2 h; Potency, µM, inactives show max response, negative = inhibition, actives largely listed as inhibitors; 0.93% of 400,000 active; active = well fitted inhibition curve with a large enough effect; inconclusive = small, poorly fitted or top-dose-only effect, or another doubt; inactive = no such curve, though single readings can be large or run the other way; also: series mostly up to about 120 µM
Target sequence (P11473 whole entry, looked up): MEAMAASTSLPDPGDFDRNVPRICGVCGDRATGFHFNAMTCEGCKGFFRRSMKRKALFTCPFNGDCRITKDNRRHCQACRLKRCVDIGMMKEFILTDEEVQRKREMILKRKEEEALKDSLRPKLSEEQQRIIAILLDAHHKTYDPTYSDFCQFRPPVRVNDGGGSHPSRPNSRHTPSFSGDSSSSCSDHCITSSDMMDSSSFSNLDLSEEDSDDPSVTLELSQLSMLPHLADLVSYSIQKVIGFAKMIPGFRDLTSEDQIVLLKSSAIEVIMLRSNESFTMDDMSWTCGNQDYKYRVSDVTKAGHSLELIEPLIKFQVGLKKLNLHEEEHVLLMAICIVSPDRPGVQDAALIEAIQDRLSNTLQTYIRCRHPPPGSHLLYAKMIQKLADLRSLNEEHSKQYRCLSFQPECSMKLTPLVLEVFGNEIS
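Measured by FP: displacement of SRC2-3 coactivator peptide from VDR by library compounds, following a two-hour ambient incubation.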
* hit, by the source's call; ? = inconclusive; & = joins results of further samples. % is scaled to controls: 0 for no effect and ±100 for the full control effect; potency is read from the fitted curve at half-maximal effect. This is a subset; the hit share may differ from the screen's.

The opening 7 records (preview)
SMILES	VDR inhibitor
O=C(Nc1ccc(C(=O)O)cc1)Nc1cccc([N+](=O)[O-])c1	-6.3%
CCN(c1cccc(C)c1)C(C(=O)Nc1ccc(OC)cc1)c1cc2c(cc1[N+](=O)[O-])OCO2 (stereo not given)	-7.7%
CCCn1c(CN2CCN(C(=O)OCC)CC2)nc2c1c(=O)n(C)c(=O)n2C	3.6%
Cc1ccccc1N(CC(=O)NCCc1ccccc1)C(=O)c1ccc(N2CCCC2)nc1	6.9%
O=C(/C=C/c1ccccc1)c1ccc(NC2=NCCCS2)cc1	?
Cc1ccnc(NC(=O)C2CC(=O)N(Cc3ccccc3)C2)c1 (stereo not given)	10.0%
CC1=CC(=O)C2=C(C)C[C@@H]3OC(=O)[C@@H](C)[C@H]3C=C12	-5.5%

The whole of this part, from the start:
SMILES	VDR inhibitor
O=C(Nc1ccc(C(=O)O)cc1)Nc1cccc([N+](=O)[O-])c1	-6.3%
CCN(c1cccc(C)c1)C(C(=O)Nc1ccc(OC)cc1)c1cc2c(cc1[N+](=O)[O-])OCO2 (stereo not given)	-7.7%
CCCn1c(CN2CCN(C(=O)OCC)CC2)nc2c1c(=O)n(C)c(=O)n2C	3.6%
Cc1ccccc1N(CC(=O)NCCc1ccccc1)C(=O)c1ccc(N2CCCC2)nc1	6.9%
O=C(/C=C/c1ccccc1)c1ccc(NC2=NCCCS2)cc1	?
Cc1ccnc(NC(=O)C2CC(=O)N(Cc3ccccc3)C2)c1 (stereo not given)	10.0%
CC1=CC(=O)C2=C(C)C[C@@H]3OC(=O)[C@@H](C)[C@H]3C=C12	-5.5%
Cc1ccc(C(C(=O)NC2CCCC2)N(C(=O)c2csnn2)c2ccccc2)o1 (stereo not given)	4.3%
CCOC(=O)CSc1nc(Nc2ccc3c(c2)OCO3)c2ccccc2n1	4.3%
Clc1ccc(CN=C(Nc2ccccc2)NC2CCCCC2)cc1	4.2%
CCOC(=O)C1=C(C)Nc2sc(C(=O)c3ccc(OC)cc3)c(N)c2C1c1ccc(C(=O)OC)cc1 (stereo not given)	-3.1%
O=S(=O)(c1ccc(Br)s1)N1CCN(CCc2ccccc2)CC1	-36.0%
O=C(O)CC(CC(=O)Nc1nncs1)c1ccccc1 (stereo not given)	4.7%
Cc1nc(Nc2cc(F)ccc2C)c2nnn(Cc3ccccc3)c2n1	?
COc1ccc(OC)c(NC(=O)c2ccc(CN(c3cc(Cl)ccc3C)S(=O)(=O)c3ccccc3)cc2)c1	-11.0%
COc1ccc(C(=O)Nc2ccc3oc(-c4cccc5c(Br)cccc45)nc3c2)cc1	5.0%
Cc1cc(C)c(NC(=O)CSc2nc3c(c(=O)n2C)SC(C)C3)c(C)c1 (stereo not given)	-13.9%
CCCS(=O)(=O)N1CC(=O)N(c2ccc(C)c(Cl)c2)C(C)(C(=O)NC2CCCCCC2)C1 (stereo not given)	11.8%
Cn1c(C(=O)N[C@@H](Cc2ccccc2)C(=O)O)cc2cc(Cl)ccc21	-5.7%
Cc1ccc(N(CC(=O)NCCc2ccccc2)C(=O)CCC(=O)Nc2cc(C)ccn2)cc1	-1.6%

Compounds shown so far with a thiophene ring, fused or not, in the order listed:
SMILES	VDR inhibitor
CCOC(=O)C1=C(C)Nc2sc(C(=O)c3ccc(OC)cc3)c(N)c2C1c1ccc(C(=O)OC)cc1 (stereo not given)	-3.1%
O=S(=O)(c1ccc(Br)s1)N1CCN(CCc2ccccc2)CC1	-36.0%

Continued:
SMILES	VDR inhibitor
O=C(NC1CCS(=O)(=O)C1)c1ccc2c(c1)OCO2 (stereo not given)	-2.5%
Cc1cc(C(=O)NCCCn2ccnc2)cs1	-10.2%
CSc1nc2ccccc2n1C(=O)Oc1ccccc1	-10.2%
O=C(CN1CCN(c2cccc(C(F)(F)F)c2)CC1)N(C1CCCC1)C1CCS(=O)(=O)C1 (stereo not given)	8.9%
CCOc1cc(N2CCOCC2)c(OCC)cc1NC(=O)CSc1nc(N)cc(=O)[nH]1	19.6%
O=c1[nH]n2c(=O)c3c([nH]c2c1N=Nc1cccc(C(F)(F)F)c1)CCCC3	-0.6%
CC(c1nc2scc(-c3ccccc3)c2c(=O)[nH]1)N1CCN(CC(=O)NC2CC2)CC1 (stereo not given)	-11.8%
CNC(=O)NC(=O)CN1C(=O)NC2(CCOc3ccccc32)C1=O (stereo not given)	-2.4%
O=C(COC(=O)c1ccco1)NCc1ccco1	5.4%
CCN(CC)c1cc(C)c2cc(NC(=O)c3cccc(OC)c3)ccc2n1	-12.4%
Cc1cc(C)c(O)c(NC(=S)NC(=O)Cc2ccccc2)c1	-13.2%
Cc1ccc(S(=O)(=O)N2CCOCC2)cc1C(=O)N1CC(C)CC(C)C1 (stereo not given)	-17.8%
Cc1ccc(NC(=O)CC2C(=O)N(Cc3ccccc3)C(=S)N2NC(=O)c2cccc(F)c2)c(C)c1 (stereo not given)	-12.0%
Cc1ccc(CNC(=O)CCCCCn2c(=O)c3sccc3n(CC(=O)Nc3ccc(C)c(F)c3)c2=O)cc1	16.0%
CCCCn1c(N)c(N(CCC(C)C)C(=O)c2oc3ccc(OCC)cc3c2C)c(=O)[nH]c1=O	4.7%
Cc1ccc(S(=O)(=O)NC(C(=O)O)c2ccccc2)cc1 (stereo not given)	8.0%
CC(=O)Nc1ccc(S(=O)(=O)NCC(=O)OCC(=O)NC(=O)C2CCCCC2)cc1	9.9%
Cc1cccc(-n2ncc(C(=O)N3CCN(c4ccc(Cl)cc4)CC3)c2C2CCN(C(=O)OC(C)(C)C)CC2)c1	12.0%
CC(C)N(Cc1nccn1C)C(=O)c1cc(COc2ccc3ncccc3c2)on1	8.8%
CCOC(=O)CN(C(=O)c1snc(C(N)=O)c1N)C(C(=O)NC1CCCCC1)c1ccc(F)cc1 (stereo not given)	-19.6%

7 compounds picked at random from those above, as already listed:
SMILES	VDR inhibitor
Cc1ccc(C(C(=O)NC2CCCC2)N(C(=O)c2csnn2)c2ccccc2)o1 (stereo not given)	4.3%
Cc1ccc(S(=O)(=O)NC(C(=O)O)c2ccccc2)cc1 (stereo not given)	8.0%
CCCCn1c(N)c(N(CCC(C)C)C(=O)c2oc3ccc(OCC)cc3c2C)c(=O)[nH]c1=O	4.7%
COc1ccc(C(=O)Nc2ccc3oc(-c4cccc5c(Br)cccc45)nc3c2)cc1	5.0%
CSc1nc2ccccc2n1C(=O)Oc1ccccc1	-10.2%
O=C(O)CC(CC(=O)Nc1nncs1)c1ccccc1 (stereo not given)	4.7%
Cc1nc(Nc2cc(F)ccc2C)c2nnn(Cc3ccccc3)c2n1	?

Later entries.
SMILES	VDR inhibitor
O=C(NCC1(c2ccccc2)CCOCC1)c1ccc(Br)o1	2.4%
CCC1CSC(Nc2ccc(C(=O)/C=C/c3cccc(C)c3)cc2)=N1 (stereo not given)	0.2%
CCOC(=O)c1ccccc1NS(=O)(=O)c1c(C)nc2sccn2c1=O	13.2%
O=C(Nc1ccc(NC(=O)c2ccco2)nc1)c1cccc(F)c1	-10.7%
Cn1ncc(Cl)c1C(=O)N/N=C/c1cc2c(cc1[N+](=O)[O-])OCO2	-11.2%
COC(=O)CNC(=O)N1CCN(S(=O)(=O)c2ccc3c(ccn3C)c2)CC1	12.4%
O=C1CCCN1c1ccc(S(=O)(=O)Nc2ccc3c(c2)OCCO3)cc1	-4.8%
CCN(CC)c1ccc2cc(-c3nc4sc5c(c4c(=O)[nH]3)CCC(C(C)(C)C)C5)c(=O)oc2c1 (stereo not given)	2.9%
O=C(NCCc1ccccc1)c1ccc(Cl)cc1[N+](=O)[O-]	-2.0%
COc1ncc2nc(-c3cc(F)cc(F)c3)c(=O)n(C3CC3)c2n1	-8.7%
CCn1c(SCC(=O)Nc2ccc(OC)cc2)nc2nc3c(cc2c1=O)CCCC3	22.7%
C[C@@]12C(=O)Nc3cc(Cl)ccc3C(=O)N1[C@H]1c3cc(Cl)ccc3OC[C@@H]1[C@@H]2c1ccccc1	0.3%
COc1cccc(-c2cc(C(=O)NCCCn3ccnc3)no2)c1	-1.4%
Cc1ccc(S(=O)(=O)c2cc(O)ccc2O)cc1C	0.6%
CCOC(=O)C1=C(c2ccccc2)NC(=O)NC1c1ccc(OC)cc1OC (stereo not given)	3.3%
CSCCNC(=O)Nc1c(-c2c(Cl)cccc2Cl)noc1C	6.0%
Cc1ccc(C(=O)COC(=O)CCN2C(=O)C3C4CCC(C4)C3C2=O)cc1C (stereo not given)	0.0%
CCOC(=O)c1cnn(-c2cc(C(C)(C)C)nc3c(-c4ccccc4)c(C)nn23)c1N	-4.0%
COc1ccc2c(C)c(CCC(=O)NCc3cccc(Cl)c3)c(=O)oc2c1	2.3%
CC(C)(C)OC(=O)N1CCC(C(=O)N[C@@H](Cc2ccccc2)C(=O)O)CC1	-5.9%
COc1ccc(F)cc1S(=O)(=O)NC1CC(C)(C)NC(C)(C)C1	-6.5%
Cc1cc(NC(=O)C2CCN(S(=O)(=O)c3cccs3)CC2)no1	-15.2%
CCCc1c(C(=O)Nc2ccc(F)cc2)cnn1-c1ccccc1	16.9%
Cc1cc(C(=O)NCCc2ccc(S(N)(=O)=O)cc2)no1	11.5%
Cn1ccsc1=NC(=O)c1cccc(OC(F)F)c1	-4.4%
Cc1ccc(Cl)cc1N1CCN(C(=O)c2ccc(CS(=O)(=O)c3ccccc3C)o2)CC1	-8.5%
CN(c1ccccc1)S(=O)(=O)c1cccc(C(=O)N2CCCCCC2)c1	-14.5%
COc1ccc(/C=N/NC(=O)c2c(C)n(C)c3ccc(OC)cc23)c(OC)c1	0.0%
COc1ccc(OC)c(C2CC(=O)Nc3cc(OC)c(OC)c(OC)c32)c1 (stereo not given)	12.7%
CN(c1ccccc1)S(=O)(=O)c1cccc(NC(=O)CCN2C(=O)C3CCCCC3C2=O)c1 (stereo not given)	-1.5%
Cc1ccccc1N(C(=O)c1csnn1)C(C(=O)NC1CCCC1)c1ccncc1 (stereo not given)	6.6%
COc1ccccc1N1CCN(/N=C/c2ccc([N+](=O)[O-])cc2)CC1	-1.6%
CC(C)=CCN1CCN(CC#Cc2ccccc2)CC1CCO (stereo not given)	-24.4%
Cc1ccccc1C(=O)Nc1ccc(N2CCN(C(=O)c3ccco3)CC2)cc1	-5.0%
CC(Sc1nnc(COc2ccc3ccccc3c2)n1C)C(=O)O (stereo not given)	2.0%
CCN(CC)C(=O)c1sc2c(c1C)c(=O)n(-c1ccc(OC)cc1OC)c(=O)n2CC(=O)Nc1ccccc1	3.1%
Cc1cc(C(=O)CN2C(=O)C3CC=CCC3C2=O)c(C)n1-c1ccccc1 (stereo not given)	-6.2%
CS(=O)(=O)c1ccccc1-c1nnc(NC(=O)CCS(=O)(=O)c2ccc(Cl)cc2)o1	-18.9%
CC1=C(C(=O)c2ccccc2)C(c2ccc(OC(F)F)cc2)NC(=S)N1 (stereo not given)	?
O=C(CCCCCn1c(=O)c2sccc2n(Cc2ccccc2Cl)c1=O)NCc1ccc2c(c1)OCO2	8.9%
C/C=C1\COC(C(=O)NCCN2CCCC2)(C(F)(F)F)C=C1C=C1CCCCC1 (stereo not given)	-15.1%&11.4%
COc1ccccc1-c1c(C)[nH]n2c(=O)c(Cc3ccccc3)c(C)nc12	-11.4%
C[C@]12C(=O)N(c3ccccc3)C(=O)N1[C@@H]1c3ccccc3OC[C@@H]1[C@H]2c1ccccc1	9.8%
O=C1OCCC1=Cc1ccccc1	5.2%
O=C(NC1CCN(Cc2ccccc2)CC1)c1ccc(Oc2cc(Cl)cc(Cl)c2)o1	-14.8%
CCOc1ccc(NS(=O)(=O)N(C)C)cc1	-0.2%
O=C(CNC(=O)Cc1cccc2ccccc12)NCc1ccccc1F	5.0%
O=C(Nc1cccc(S(=O)(=O)N2CCCCCC2)c1)c1ccc(Cl)nc1	-2.4%
COC(=O)N1C(=O)[C@@](c2ccc(OC)cc2)(C(C)C)N1C(=O)OC	13.9%
CCC(C)(C)NC(=O)C(c1ccc(OC)cc1)N(Cc1ccccc1)C(=O)CCC(=O)Nc1cc(C)on1 (stereo not given)	4.5%
COc1ccccc1C1CC(=O)Oc2cc(C)c(Cl)cc21 (stereo not given)	?
NC1=NC(S)C2N=CN=C2N1 (stereo not given)	?
Cc1c(O)nc(SC2CC(=O)N(c3cc(Cl)cc(Cl)c3)C2=O)[nH]c1=O (stereo not given)	-11.3%
Cc1ccc(S(=O)(=O)NCCC(=O)NCCOc2ccccc2)cc1	3.8%
CCCCC(CCC(=O)NNC(=O)Cc1ccccc1)C(=O)O (stereo not given)	2.2%
CC1CC(C)CN(C(=O)c2ccc(C#N)cc2)C1 (stereo not given)	-0.7%
CC(=O)c1cccc(NC(=O)CCn2nc(C)c(S(=O)(=O)N3CCCCC3)c2C)c1	5.7%
O=C(NCc1nnc(SCC(=O)N2CCOCC2)o1)c1c(F)cccc1F	7.1%
COCCNC(=O)CCc1nc(-c2ccccc2)no1	-4.0%
O=C1CC2(CCCC2)CC(=O)N1CCNC[C@H]1COc2ccccc2O1	-6.2%

Next section:
SMILES	VDR inhibitor
C1CCC(N=C(NC23CC4CC(CC(C4)C2)C3)N2CCOCC2)CC1	-2.0%
O=C(NCc1cccs1)C1CCCCC1	-10.2%
O=C(Cc1ccccc1)NN1C(=O)/C(=C/c2ccc(C(=O)O)cc2)SC1=S	-17.7%
COC(=O)C(C(=O)NCC1CCCO1)C1CCCC1 (stereo not given)	-12.3%
COc1cccc(NC(=O)CN(C)C(=O)CC2CCCCC2)c1	-5.5%
Cc1cc(C)cc(NC(=O)C(NCCN2CCOCC2)c2ccccc2)c1 (stereo not given)	?
CC(C)NS(=O)(=O)c1ccc2[nH]c3nc(SCC(=O)Nc4ccc(F)c(F)c4)nnc3c2c1	12.5%
COc1ccccc1C(=O)Nc1ccnn1C1CCN(C/C=C/c2ccc(F)cc2)CC1	0.1%
Cc1c(C(=O)Nc2ccncc2)sc2nc(-c3ccc(F)cc3)cn12	-5.3%
O=C1CN(C(=O)c2c(F)cccc2Cl)C(c2ccc(F)cc2)c2cc(Br)ccc2N1 (stereo not given)	-16.3%
COc1ccc2c(c1)nc(SCC(=O)c1ccc(Br)s1)n2C	-24.0%
CCCN(Cc1cc2ccc(C)cc2[nH]c1=O)S(=O)(=O)c1ccccc1	-2.3%
